From PubChem BioAssay
Anaer choline gr: growth inhibitors of anaerobic choline-fed gram-negatives, minimal medium, absorbance | Gram-negative bacterium anaerobic choline minimal medium; hits give low values; many inactives read as strong as hits in the columns shown | calls only | actives 0.2% (n = 55,000) | AID 1963822, 2024;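 active = growth z-score on choline under -2 at 7 or 20 h with little or no fall on glycerol, limits in tiers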;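 note: stock transfer was 300 nL into about 50 µL; the organism is E. coli; final concentration not given here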
Anaer choline gr early: further read-out of Anaer choline gr, marked with its call; z-score; measured here: choline growth z-score, timepoint 1;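 score of optical density at 7 h as mean of two plates; lower means less growth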
An asterisk follows results filed as active; i = inactive. Only part of the results is shown, so the mix of outcomes need not match the whole.

SMILES | Anaer choline gr | Anaer choline gr early
CCCn1c(=O)c2ccc(Cl)cc2n2c(=O)n(CC(=O)Nc3ccc4c(c3)OCCO4)nc12 | i | 0.04
O=c1c2cccnc2[nH]n1-c1ccccc1 | i | -2.6
CCOC(=O)CN1C(=O)CSc2ccc(S(=O)(=O)N3CCOCC3)cc21 | i | -0.44
CC(C)CNC(=O)c1cccc(-c2cnc3ccccc3c2)c1 | i | 4.4
Cc1cc(C)cc(C(=O)Nc2ccc3c(c2)CC(=O)N3C)c1 | i | 0.7
CCOC(=O)c1nc2ccccc2nc1NC(C)c1ccccc1 (stereo not given) | i | -0.38
COc1ccccc1CNCc1c(C(=O)O)c(C)n(-c2ccccc2)c1C | i | 0.27
COc1ccccc1-c1c(C)nn2c(SCC(=O)NCc3cccc(Cl)c3)cc(C)nc12 | i | 0.43
CS(=O)(=O)Nc1nc2ccc(NC(=O)c3cc(-c4ccccc4)nc4ccccc34)cc2s1 | i | -0.85
CCN1CCN(CCCNC(=O)CN2C(=O)CCCc3ccccc32)CC1 | i | -1.3
Cc1cc(C)c(S(=O)(=O)NCc2nc3cccnc3n2C2CC2)cc1C | i | -2
O=C(NCCCN1CCCC1)c1ccc(CN2C(=O)CSc3ncccc32)cc1 | i | 0.29
CCOC(=O)c1c(-c2ccccc2)csc1NC(=O)C1Cc2ccc(C)cc2C(=O)O1 (stereo not given) | i | 0.85
CCCc1cc(C(=O)c2ccc(-c3ccccc3)cc2)ccc1OCCCN1CCCc2c(OC(C)(C)C(=O)O)cccc21 | i | 0.64
COCc1nnc(C(=O)Nc2ccc(C(=O)NCCc3c[nH]c4ccc(OC)cc34)cc2)s1 | i | -0.67
CC(=O)NC(C)c1nc2ccccc2[nH]1 (stereo not given) | i | -0.83
COc1cc(OC)cc(N2C(=O)c3cc4ccsc4n3CC2(C)C(=O)NC2CCCCC2)c1 (stereo not given) | i | 1.6
O=S(=O)(c1ccc(-c2nnc(C3CC3)o2)s1)N1CCC2(CC1)OCCO2 | i | 0.76
Cc1sc(-c2cc(C(F)(F)F)on2)cc1S(=O)(=O)NCc1ccccc1 | i | -0.36
CCn1cnc(S(=O)(=O)N2CCC(C(=O)N3CCc4ccccc4C3)CC2)c1 | i | -0.21
CCC(C)NC(=O)c1cccc(-c2cc(N3CCCC3)ncn2)c1 (stereo not given) | i | -0.35
O=C(O)c1cc(Nc2ccc(F)cc2)c2cccc(Cl)c2n1 | i | -0.81
CCOc1ccccc1NC(=O)N1CCc2cc(S(=O)(=O)N3CCC(C)CC3)ccc21 | i | 1.3
CN(C)c1cc(OC2CCN(S(=O)(=O)c3ccccc3)C2)ncn1 (stereo not given) | i | 0.87
O=C(Nc1ccccc1)C1CC(=O)N(CCc2c[nH]c3ccc(F)cc23)C1 (stereo not given) | i | 0.21
Cc1nc(-c2ccccc2)sc1C(=O)Nc1nnc(C2CCCO2)s1 (stereo not given) | i | -1
O=C(c1ccc(Cn2c(=O)c(=O)n(Cc3ccccc3F)c3cccnc32)cc1)N1CCOCC1 | i | 0.33
CN1Cc2sccc2C(c2ccc(O)c(O)c2)C1 (stereo not given) | i | 0.41
CC(C)c1cc(C2CCCN2C(=O)NC2CCCC2)on1 (stereo not given) | i | 0.7
Cc1ccc2snc(C(=O)N3CCN(S(=O)(=O)c4cnn(C(F)F)c4C)CC3)c2c1 | i | -0.64

Profiles as entered above. Screens in order: Anaer choline gr | Anaer choline gr early
Record of CN1Cc2sccc2C(c2ccc(O)c(O)c2)C1 (stereo not given) : i | 0.41
Record of Cc1nc(-c2ccccc2)sc1C(=O)Nc1nnc(C2CCCO2)s1 (stereo not given) : i | -1
Record of O=C(c1ccc(Cn2c(=O)c(=O)n(Cc3ccccc3F)c3cccnc32)cc1)N1CCOCC1 : i | 0.33
Record of O=S(=O)(c1ccc(-c2nnc(C3CC3)o2)s1)N1CCC2(CC1)OCCO2 : i | 0.76
Record of CCC(C)NC(=O)c1cccc(-c2cc(N3CCCC3)ncn2)c1 (stereo not given) : i | -0.35

Continuation.
SMILES | Anaer choline gr | Anaer choline gr early
O=C(c1cnc2ccccc2c1Nc1ccc(F)cc1F)N1CCOCC1 | i | -0.64
Cc1ccc(Nc2ncnc3c2cnn3C)cc1F | i | -0.75
Cn1cc(CCN2CCN(S(=O)(=O)c3ccc4c(c3)OCCO4)CC2)c2cccnc21 | i | -2.8
Cc1ccc(NCc2cc(=O)n3[nH]c(-c4ccc(C(C)(C)C)cc4)nc3n2)cc1Cl | i | -0.14
O=C(NCc1nnc2n1CCCC2)c1ccc(Br)o1 | i | -0.41
CCCCC(=O)Nc1ccc2c(c1)nc(Cn1ccnc1C)n2CCC | i | 0.41
Cc1nc(CCNC(=O)c2ccccc2C)cs1 | i | -1.5
CCCCc1nnc(NC(=O)C2CC(=O)N(CCc3c[nH]c4ccc(C)cc34)C2)s1 (stereo not given) | i | -0.08
CC1CCN(S(=O)(=O)c2ccc3c(c2)N(Cc2noc(C4CCC4)n2)C(=O)CO3)CC1 | i | 0.11
CN(Cc1ccccc1)C(=O)CCc1nc(CN2CCN(S(=O)(=O)c3ccc(Br)cc3)CC2)no1 | i | 1.2
O=C(O)C1CCN(c2ncnc3nc[nH]c23)CC1 | i | 0.85
COC(=O)c1ncn2c1C(=O)N(c1ccc3c(c1)OCCO3)C(C)(C(=O)NC1CCCCC1)C2 (stereo not given) | i | 0.75
Cc1nc(-c2cc(S(=O)(=O)NCCCOC(C)C)c(C)s2)sc1C | i | -1.1
O=C(CC1CCN(C(=O)c2nnc(C(=O)Nc3ccc(F)cc3)s2)CC1)NCc1ccccc1 | i | 0.89
CCCCn1cnc2c(-c3ccccc3)cn(CC(=O)Nc3ccccc3)c2c1=O | i | 0.82
Cc1nc(NCc2ccccc2)nc2c1C(=O)CC(C)C2 (stereo not given) | i | -0.27
CCOc1nc2c(c(C)nn2-c2ccc(C)cc2)c(C)c1CCC(=O)Nc1cc(F)ccc1C | i | 0.37
Cc1ccc(-n2nnnc2C(C)(C)N)cc1 | i | -0.38
CCN(CC)S(=O)(=O)c1ccc2c(c1)N(CC(=O)NC(C)C)C(=O)CCS2 | i | 0.01
O=C(Nc1ccc(Cl)cc1)c1cc2ccccn2n1 | i | 0.57
CCCCN(CC)C(=O)c1cc2c(=O)n3ccccc3nc2n1C | i | -0.79
CC(C)Cn1c(=O)c2ccccc2n2c(=O)n(CC(=O)N3CCN(c4ccc(F)cc4)CC3)nc12 | i | 0.29
O=S(=O)(NCc1cccn1Cc1ccccc1)c1cccc(Cl)c1 | i | 0.28
Cc1cc(NC(=O)Cc2noc3ccccc23)no1 | i | -1.2
NC(=O)c1nc(-c2cccc(O)c2)nc2c1[nH]c(=O)n2CC1CCCO1 (stereo not given) | i | 1.7
Cc1cccc(OCc2nc(C)c(C(=O)Nc3nc4ccc(C)cc4s3)s2)c1 | i | 0.51
COCCNC(=O)CSc1nnc2n(CCC(=O)NC3CCCCC3)c(=O)c3ccccc3n12 | i | -0.57
CC1=C(C(=O)O)N2C(=O)C(NC(=O)C(N)c3ccccc3)C2SC1 (stereo not given) | i | -0.14
O=C(NCCc1ccc(Cl)cc1)C1CCCN(c2ncnc3c2oc2ccccc23)C1 (stereo not given) | i | 0.1
O=C(CC1CCN(C(=O)c2cc3ccccc3[nH]2)CC1)NC1CC1 | i | -0.53
Cn1c(=O)[nH]c2nc(N3CCCC3)sc2c1=O | i | 1.2
O=C(Cn1cnc2c(sc3ncccc32)c1=O)Nc1cccc(Cl)c1 | i | 0.02
Cc1ccc(C(=O)NC2CCCCC2)cc1-n1nnc2cccnc21 | i | 0.86
COc1ccc(CCN2CCC(CNS(=O)(=O)c3cnc[nH]3)CC2)cc1 | i | -0.16
O=C(CN1C(=O)CCCc2ccccc21)N1CCN(c2ccccc2)CC1 | i | 0.53
O=C(Nc1ccc2c(c1)OCCO2)c1cccc(N2C(=O)CCS2(=O)=O)c1 | i | 0.23
CCN(Cc1ccccc1)C(=O)CCc1nc(CN2CCN(S(=O)(=O)c3ccc(F)c(C)c3)CC2)no1 | i | -1.2
CN(CC1CCCO1)C1CCN(S(=O)(=O)c2csc(C(N)=O)c2)CC1 (stereo not given) | i | -0.59
Cc1cc(C2CCCN2C(=O)c2c(-c3c(F)cccc3Cl)noc2C)no1 (stereo not given) | i | 1
C=CCn1ccc2c(OCC(=O)NC3CCCC3)cccc2c1=O | i | 0.86
Cc1cc(Nc2ccc(N(C)C)cc2)ncn1 | i | -0.58
CCCN1CCN(C(=O)CCc2c(C)nn(-c3ccc4nnc(C)n4n3)c2C)CC1 | i | 0.09
CC1CC(=O)N(Cc2ccc(Br)cc2)c2ccccc2N1 (stereo not given) | i | -0.85
COC(=O)c1cccc(C(=O)Nc2cccc(OC)c2)n1 | i | -0.44
Cc1nn2c(S(=O)(=O)N3CCOCC3)c(C)nc2s1 | i | 0.24
O=C(NCc1ccccc1)NCC(c1ccc(F)cc1)c1c[nH]c2ccccc12 (stereo not given) | i | -0.21
Cc1ccc(NC2=NC(c3ccc(Cl)cc3)n3c(nc(C)cc3=O)N2)cc1 (stereo not given) | i | -0.56
CCOc1c(C(=O)OC)sc2ccc(NC(=O)Nc3cc(Cl)ccc3OC)cc12 | i | 0.64
Cc1ccc(N2C(=O)CCS2(=O)=O)cc1S(=O)(=O)N(C)C1CCS(=O)(=O)C1 (stereo not given) | i | -0.26
CCCNC(=O)N1CCC(N2CCN(Cc3ccc(F)cc3)C(=O)C2=O)CC1 | i | -0.37
Cn1ccc2cc(S(=O)(=O)N3CCN(C(=O)Nc4ccc(F)cc4)CC3)ccc21 | i | -0.98
Cc1ccc(NC(=O)NCCCN2CCN(c3ccccc3)CC2)cc1 | i | -0.84
COc1ccc(C2N=C(N)Nc3nc(=O)c4ccccc4n32)cc1 (stereo not given) | i | -0.53
CC(=O)Nc1nc(N2CCC(C(=O)NCc3cccnc3)CC2)sc1C(=O)N1CCCC1 | i | -0.25
CN1CCN(c2nc(N3CCC(N4CCCCC4)CC3)nc3c2cnn3C)CC1 | i | -0.39
COc1ccc(-c2nc3sc(CCNC(=O)c4ccc(C(C)(C)C)cc4)c(C)n3n2)cc1 | i | 0.9
CCOC(=O)c1cc(C(=O)Nc2ccc(Cl)cc2)c(=O)[nH]c1C | i | -0.36
CCCCN(C)C(=O)CCc1nc2sc3c(c2c(=O)[nH]1)CCC(C)C3 (stereo not given) | i | 0.88
O=C1c2cccnc2C(=O)N1Cc1ccc(S(=O)(=O)N2CCN(c3ccccc3)CC2)cc1 | i | 0.43
CC(C)(C)c1nnc2sc(SCC(=O)Nc3nccs3)nn2c1=O | i | 0.46

New compounds follow:
SMILES | Anaer choline gr | Anaer choline gr early
Cn1c(=O)c2nc(SCCC(=O)Nc3ccc(F)cc3)n(C)c2n(C)c1=O | i | -0.48
OCCOCCNCc1ccc(-c2ccc(Cl)cc2)o1 | i | -0.45
Cc1cccc(Nc2c(-c3ccc(N4CCOCC4)cc3)nc3ncccn23)c1 | i | -0.04
Cc1cc(C(=O)N2CCCCC2)c2c(=O)n(CC(=O)N(C)c3ccccc3)c(=O)n(C)c2n1 | i | 0.87
Cc1oc(-c2ccc(C(=O)NCCc3c[nH]c4ccccc34)cc2)nc1CSc1ccccc1 | i | 1.1
COc1cccc(Oc2ccnc(-c3cccc(C(=O)NC4CCCCC4)c3)n2)c1 | i | -0.46
c1ccc(-c2nnc(CN3CCc4ccccc4C3)o2)cc1 | i | 0.32
CCCn1c(=O)c2sccc2n2c(CCC(=O)NC(C)C)nnc12 | i | -0.44
CCn1cnc2c(oc3ccccc32)c1=O | i | 0.02
CCCCOc1ccc(CN2CCCC2c2cc(C(C)C)on2)cc1 (stereo not given) | i | 0.18
COc1ccc(OC)c2c1cc1n2CC(C)(C(=O)NC2CCCC2)N(CCCN2CCOCC2)C1=O (stereo not given) | i | -0.18
COc1ccccc1C1CC(=O)Nc2c1c(-c1ccc(Cl)cc1)nn2-c1ccccc1 (stereo not given) | i | 0.35
CC(C)OCCCN1C(=O)c2nc3ccccc3n2CC1(C)C(=O)NC1CCCC1 (stereo not given) | i | 0.58
Cc1nc2nc(-c3ccccc3)nn2c(C)c1CC(=O)N1CCCCC1C (stereo not given) | i | 0.24
CCc1cc(C(=O)Nc2cc(Cl)ccc2O)no1 | i | -0.53
COc1ccc(-c2noc(C)n2)cc1 | i | -1.6
Cc1csc(C2CCCN(C(=O)C3CCOC3)C2)n1 (stereo not given) | i | 0.55
O=C(Nc1ccc(F)cc1)N1CCC(N2CCN(Cc3ccc(F)cc3)C(=O)C2=O)CC1 | i | 0.04
CCN(CC)c1nc2ccsc2c(=O)n1CCC(=O)NCC1CC1 | i | 0.04
O=C(Cc1ccc(NC2=NC3CS(=O)(=O)CC3S2)cc1)Nc1ccc(F)cc1 (stereo not given) | i | -0.08
CN(C)C(=O)c1cc(NS(=O)(=O)c2ccc3c(c2)CCCC3)ccc1N1CCNCC1 | i | -2.3
CC1CCN(Cc2nc3c(c(=O)n(C)c(=O)n3C)n2Cc2ccc(F)cc2)CC1 | i | -1.1
COc1cc(CSc2nnc3n2CCN3c2ccc(F)cc2)cc(OC)c1 | i | 0.72

At a glance, part of the list above:
SMILES | Anaer choline gr | Anaer choline gr early
Cc1nc2nc(-c3ccccc3)nn2c(C)c1CC(=O)N1CCCCC1C (stereo not given) | i | 0.24
CCc1cc(C(=O)Nc2cc(Cl)ccc2O)no1 | i | -0.53
COc1ccc(-c2noc(C)n2)cc1 | i | -1.6
Cc1csc(C2CCCN(C(=O)C3CCOC3)C2)n1 (stereo not given) | i | 0.55
O=C(Nc1ccc(F)cc1)N1CCC(N2CCN(Cc3ccc(F)cc3)C(=O)C2=O)CC1 | i | 0.04
CCN(CC)c1nc2ccsc2c(=O)n1CCC(=O)NCC1CC1 | i | 0.04
O=C(Cc1ccc(NC2=NC3CS(=O)(=O)CC3S2)cc1)Nc1ccc(F)cc1 (stereo not given) | i | -0.08
